From PubChem
2A StopGo = lowers the luciferase signal of an FMDV 2A StopGo reporter | human cells with a luciferase reporter of 2A StopGo recoding; control for the full effect not named in the record | Potency, µM (highest dose often 57.9 µM), for the others: at the top dose signal change, negative = less light | 410,000 tested, 1.2% active | AID 1159524; active = well fitted falling curve with a large enough effect; inconclusive = small, poorly fitted or top-dose-only effect; inactive = no such curve, though single readings can be large or run the other way; tested in HEK293T cells; also: % is scaled to controls: 0 for no effect and ±100 for the full control effect; nearly all actives have a fitted effect of over 45% in size; luciferase light after 4 h
Marburg entry inh = inhibitors of Marburg virus binding or cell entry | Marburg virus pseudotyped entry inhibition, cell reporter; control for the full effect not named in the record; about a third of the inactives were read at about 46 µM | Potency, µM (highest dose often 37.8 µM), for the others: at the highest dose activity change, negative = inhibition, actives largely listed as inhibitors | 300,000 tested, 1.8% active; active = well fitted inhibition curve with a large enough effect; inconclusive = small, poorly fitted or top-dose-only effect, or effect the other way; inactive = flat fitted curve, though single readings scatter; tested in HEK293 cells; about a fifth of its hits are not listed in these tables; also: % is scaled to controls: 0 for no effect and ±100 for the full control effect; luciferase read-out
RE007 growth inh = less growth of the S. pombe RE007 Vpr strain; AID 651644; Potency, µM (doses to about 92.2 µM), for inactives: top-dose activity change, negative = less growth; 360,000 tested, 0.21% active; S. pombe RE007 Vpr strain, BacTiter-Glo ATP luminescence, 24 h; control for the full effect not named in the record; active = well fitted falling curve with a large enough effect; inconclusive = small, poorly fitted or top-dose-only effect; inactive = no such curve, though single readings can be large or run the other way;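 also: % is scaled to controls: 0 for no effect and ±100 for the full control effect; nearly all actives have a fitted effect of over 50% in size; the assay follows cell death caused by Vpr and the record does not say whether a fall means rescue or toxicity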
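Fission yeast strain RE007, carrying one chromosomally integrated HIV-1 vpr copy, was seeded at OD 0.01 in PMG+AL medium with 23 nL pinned compound. After 24 h at 30 °C and 99% humidity, viability was read by BacTiter-Glo luminescence.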
Lassa entry inh = Lassa virus entry inhibition; 300,000 tested, 1.2% active; Lassa virus pseudotype entry inhibition, cell reporter; control for the full effect not named in the record; Potency, µM (doses to about 37.9 µM), without a hit: top-dose activity change, negative = inhibition, hits mostly inhibitors; active means well fitted inhibition curve with a large enough effect; inconclusive means small, poorly fitted or top-dose-only effect, or effect the other way; inactive means flat fitted curve, though single readings scatter; tested in HEK293 cells; also: % is scaled to controls: 0 for no effect and ±100 for the full control effect; nearly all actives have a fitted effect of over 50% in size; luciferase read-out
NS1 function inh = influenza NS1 inhibition. 270,000 tested, 0.4% active. Potency, µM (titrated, usually from 46.1 µM), for the others: at the top dose activity, positive = more growth. S. cerevisiae slowed by influenza A NS1, growth recovery by OD600; also: actives are rising curves; nearly all actives have a fitted effect of over 50% in size
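S. cerevisiae expressing influenza A NS1, grown in glucose, washed, then diluted 1:100 into pH 6.0 -URA galactose medium with 23 nl compound. Growth recovery read as OD600; NS1-free strain serves as control.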
SARS PLP yeast = inhibitors of SARS-CoV papain-like protease in yeast; S. cerevisiae expressing SARS-CoV PLpro, growth rescue; control for the full effect not named in the record; Potency, µM (doses to about 32.9 µM), without a hit: at the highest dose activity, positive = growth rescue; 330,000 tested, 0.19% active; also: 0% is about no effect; nearly all actives have a fitted effect of over 55% in size; growth read by luminescence after 48 h
Cruzain noTriton = cruzain (T. cruzi) inhibition without detergent; P25779; purified cruzain, Z-FR-AMC fluorescence, no detergent; AID 1476; 200,000 tested, 2.3% active; Potency, µM, for inactives: max response, negative = inhibition, hits mostly inhibitors; active = well fitted curve in the direction sought with a large enough effect; inconclusive = small, poorly fitted or top-dose-only effect, or another doubt; inactive = no such curve, though single readings can be large; an effect the other way counts as inactive or inconclusive;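 also: plate controls were enzyme without inhibitor for no effect and buffer without enzyme for full effect; nearly all actives have a fitted effect of over 40% in size; top concentration of the series not given in the record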
Target sequence (P25779 123-467 limits assumed): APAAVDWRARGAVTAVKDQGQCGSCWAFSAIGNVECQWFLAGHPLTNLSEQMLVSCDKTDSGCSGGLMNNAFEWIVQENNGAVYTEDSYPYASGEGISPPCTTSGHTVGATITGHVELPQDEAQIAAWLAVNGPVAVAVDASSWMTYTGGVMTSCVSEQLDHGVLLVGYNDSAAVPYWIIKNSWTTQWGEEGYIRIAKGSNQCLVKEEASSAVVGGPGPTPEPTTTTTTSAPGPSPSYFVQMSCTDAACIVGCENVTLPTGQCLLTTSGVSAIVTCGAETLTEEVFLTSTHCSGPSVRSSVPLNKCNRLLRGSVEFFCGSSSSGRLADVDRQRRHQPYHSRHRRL
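Detergent-free condition (0.00005% Triton X-100) in acetate buffer pH 5.5 with DTT. 1.5 nM enzyme and compound were pre-mixed 15 min, then 2 uM Z-FR-AMC substrate added; reaction progress from fluorescence change between first and third reads (60 s).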
Cruzain Triton = blocks cruzain activity in presence of Triton detergent | purified cruzain, Z-FR-AMC fluorescence, 0.01% Triton | Potency, µM, without a hit: max response, negative = inhibition, hits mostly inhibitors | 200,000 tested, 0.43% active; active = well fitted curve in the direction sought with a large enough effect; inconclusive = small, poorly fitted or top-dose-only effect, or another doubt; inactive = no such curve, though single readings can be large; an effect the other way counts as inactive or inconclusive;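 also: plate controls were neutral wells for no effect and buffer without enzyme for full effect; nearly all actives have a fitted effect of over 40% in size; top concentration of the series not given in the record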
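Detergent-containing arm of a paired screen for aggregation-based inhibition: 0.01% Triton X-100 present. Cruzain at 1.5 nM cleaved 2 uM Z-FR-AMC at pH 5.5 with 5 mM DTT; AMC fluorescence gain over 60 s measured activity.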
* = called active by the depositor; ? = inconclusive; · = no result given; & = joins results of further samples; [ ] = dose if it differs, or a comment. Unless noted, calls follow the shape of the dose curve; as a rule, active means well fitted rising curve with a large enough effect; inconclusive means small, poorly fitted or top-dose-only effect; inactive means no such curve, though single readings can be large or run the other way. Potency is read from the fitted curve at half-maximal effect.

Values in the order – 2A StopGo	Marburg entry inh	RE007 growth inh	Lassa entry inh	NS1 function inh	SARS PLP yeast	Cruzain noTriton	Cruzain Triton
1: COc1cc(=O)[nH]c(SC(C)C(=O)Nc2nc3c(s2)CCCC3)n1 (stereo not given)
 : 6%	0%[46.1 µM]	-15%	-5%	8%	-1%	·	·
2: CCN(CC)C(=O)C1CCCN(Cc2sccc2C)C1 (stereo not given)
 : 7%	6%	-1%	16%	-2%	-3%	-8%	5.4%
3: CCOc1ccc(-c2c(C#N)c(N)nc3c2c(=O)n(C)c(=O)n3C)cc1OC
 : -15%	1%	5%	?	7%	-3%	9%	-3.8%
4: CC1=C(C(=O)Nc2ccccc2F)C(c2cccs2)C2=C(CCCC2=O)N1 (stereo not given)
 : 16%	·	-13%	·	-1%	0%	·	·
5: Nc1ncccc1OCc1ccc(Cl)c(Cl)c1
 : -29%	-1%[46.1 µM]	-21%	?	-31%	-1%	·	·
6: Cc1ccc(O)c(NC(=O)CSc2ccc(Cl)cc2)c1
 : 5%	?	17%	?	-1%	1%	·	·
7: CCOC(=O)N1CCC(Nc2c(NCCN3CCN(c4ccccc4F)CC3)c(=O)c2=O)CC1
 : -16%&-7%	-24%&-24%	-2%&8%	2%	7%	-3%	4%	7.4%
8: CN(C(=O)CSc1nnnn1-c1ccc(O)cc1)C1CCS(=O)(=O)C1 (stereo not given)
 : -15%	-1%[46.1 µM]	-7%	6%	·	1%	·	·
9: O=C(COc1ccc(Br)cc1)N/N=C1/SCC(=O)N1Cc1ccccc1
 : -2%	2%	37%	-6%	-3%	-3%	2%	-4.5%
10: Cc1cc2cc(C=O)c(Cl)nc2cc1C
 : 33%[activator]	21%	-15%	4%	7%	-6%	11%	5.7%
11: Cc1ccc(C(=O)c2cn[nH]c2-c2ccccc2O)cc1
 : 43%[activator]	3%	-9%	?	-4%	-4%	6%	-2.8%
12: CSc1nc2ccc(NC(=O)c3ccco3)cc2s1
 : -5%	?	?	-5%	-4%	-70%	-1%	-9.3%
13: O=C(NCCCn1ccnc1)C(=O)NCC1OCCN1S(=O)(=O)c1ccccc1 (stereo not given)
 : -10%	-16%[46.1 µM]	-12%	1%[46.1 µM]	·	-4%	·	·
14: Cc1c(NC(=O)C(C)OC(=O)CCc2c[nH]c3ccccc23)c(=O)n(-c2ccccc2)n1C (stereo not given)
 : -8%	?	9%	1%	·	·	·	·
15: Cc1ccc(OCC(=O)OCC(=O)c2c(N)n(C)c(=O)n(C)c2=O)cc1C
 : -17%	14%	-11%	0%	0%	11%	?	0.3%
16: CCOC(=O)c1c(C)[nH]c(N=Nc2ccccc2Cl)c1C
 : 43%[activator]	7%	-8%	·	-52%	-6%	·	·
17: O=C(CCS(=O)(=O)c1cccc2nonc12)N1CC(=O)N(CCc2ccccc2)C(=O)C1
 : -22%	-12%&-12%	-18%	-3%	-14%	0%	-2%	-7.2%
18: CCCC(=O)Nc1ccc(NC(=O)c2cc3ccccc3o2)c(OC)c1
 : 16%	-32%[46.1 µM]	17%	-14%[46.1 µM]	20%	8%	·	·
19: CCCOC(=O)c1[nH]c2c(c1C)C(=O)CC(c1cc(OC)c(OC)c(OC)c1)C2 (stereo not given)
 : ?	-1%	-1%	·	-60%	-1%	?	-4.6%
20: CN(Cc1ccccc1)C(=O)c1ccc(NC(=O)C2=CSCCO2)cc1
 : 81%[activator]	·	12%	·	-5%	-1%	·	·
21: CC1=C2[C@@H]3OC(=O)[C@H](C)C3CC[C@@]2(C)C=CC1=O (stereo not given in full)
 : -12%	-2%	1%	·	0%	0%	·	·
22: O=C(O)CCCSCC(=O)Nc1ccccc1
 : -8%	7%	-6%	20%	13%	7%	-1%	2.2%
23: CC1=CC2C(C(O)CC3(C)C2CC(C)C32OCOC23COCO3)C2(C)C/C(=C\O)C(=O)C=C12 (stereo not given)
 : 40µM*	7.9µM*	-14%	?	·	·	·	·
24: O=C(NCC1CCCO1)C1CC(=O)N(C2CCCC2)C1 (stereo not given)
 : 14%	23%	3%	?	-1%	-6%	1%	2.4%
25: COc1cc(/C=C2/SC(=S)N(CC(=O)Nc3nc4ccccc4s3)C2=O)cc(OC)c1OC
 : ·	2%	-15%	15%	3%	3%	13µM*	-3.7%
26: COc1cccc(C(=O)C2CCCN(C(=O)c3cccc(C#CC(C)(C)O)c3)C2)c1 (stereo not given)
 : 0%	-25%[46.1 µM]	-3%	?	-5%	0%	·	·
27: Cc1ccc(CCNC(=O)C2CCCN2S(=O)(=O)c2ccc3c(c2)CCC(=O)N3)cc1 (stereo not given)
 : -14%	0%	3%	·	-4%	1%	-11%	0.6%
28: COc1cc(C(=O)OC2CCCCC2=O)cc(OC)c1C (stereo not given)
 : -20%	25%	-14%	?	-4%	19%	10%	-9.4%
29: Cc1ccc(NC(=O)CCc2c(C)nn(-c3ccc(N4CCCCC4)nn3)c2C)cc1C
 : 2%	·	-10%	-21%[46.1 µM]	-22%	4%	·	·
30: O=S(=O)(c1cccc2cccnc12)N1CCCc2ccccc21
 : -5%	-22%[46.1 µM]	6%	?	1%	1%	·	·
31: Cc1nn(-c2ccccc2)c(C)c1NC(=O)COC(=O)CCOc1ccccc1
 : -14%	5%	-5%	3%	·	6%	·	·
32: Cc1ccn2c(Nc3ccccc3)c(-c3ccccn3)nc2c1
 : -26%	?	-16%	5.8µM*	·	19%	·	·
33: COc1ccc(-c2cc(-c3n[nH]c(=S)n3-c3cc(OC)ccc3OC)[nH]n2)cc1
 : -17%	-12%	23%	-6%	-4%	-7%	1%	-7.6%
34: FC(F)(F)c1cc(-c2ccco2)nc2ncnn12
 : -7%	-3%	19%	-4%	-9%	-4%	1%	-7.9%
35: CCCCNS(=O)(=O)c1ccc(NS(=O)(=O)c2c(C)cc(C)cc2C)cc1
 : 28%	-27%	4%	-20%	-76%	-1%	3%	-11%
36: COc1ccc(-c2nc3cc(C(C)C)ccc3o2)cc1NC(=O)COc1ccc(C)cc1C
 : 7%	2%[46.1 µM]	·	-2%[46.1 µM]	·	·	8%	-1.6%
37: Cc1ccc(CN(CC(=O)N/N=C/c2ccco2)S(=O)(=O)c2ccc(C)cc2)cc1
 : -3%	22%	19%	-18%	5%	-9%	2%	-8.7%
38: COc1ccc(CN(C)C(=O)c2ccc(NS(=O)(=O)c3ccc(C)c([N+](=O)[O-])c3)cc2)c(OC)c1OC
 : -16%	?	-5%	-7%	·	7%	·	·
39: COc1ccc([C@@H](O)[C@@H](N)c2ccccc2)cc1
 : 23%	8%[46.1 µM]	-9%	-9%	·	·	·	·
40: COCCn1c(SCc2cccnc2)nnc1-c1c[nH]c2ccccc12
 : -2%	·	13%	·	-3%	-11%	2%	3.9%
41: Cc1ccc(Cn2c(NC(=O)c3ccco3)nc3ccccc32)cc1
 : 0%	-5%	2%	-10%	?	2%	-1%	1.0%
42: COc1ccc(C(=O)c2coc3ccc(O)c(CN(C)C)c23)cc1
 : -21%	6%	-6%	·	-9%	4%	-11%	-3.4%
43: O=C(COc1ccc(F)cc1)Nc1ccc2nc(SCC(=O)N3CCc4ccccc43)sc2c1
 : ?	5%[46.1 µM]	·	-1%[46.1 µM]	·	·	-4%	-1.3%
44: COc1ccc(C(=O)Nc2c(C)csc2C(=O)O)cc1
 : -10%	-6%[46.1 µM]	-3%	-8%	-2%	0%	·	·
45: CSc1ccccc1NC(=O)C1=CC(c2cccs2)=NS(=O)(=O)N1C
 : -9%	·	9%	·	-2%	-2%	·	·
46: CC1CCCN(C(=O)CSc2cnc3ccccc3n2)C1 (stereo not given)
 : 38%[activator]	11%	13%	-26%	-13%	-4%	0%	3.1%
47: Cc1nc2cc(F)ccc2n1C1CCN(S(=O)(=O)c2ccccc2)CC1
 : ?	-1%	-13%	4%	-13%	1%	1%	-5.7%
48: Cc1ccc(C)c(NC(=O)C2CC3CCC2C3)c1 (stereo not given)
 : 44%[activator]	·	25%	·	8%	1%	·	·
49: CC1=NN(c2cc(Cl)c(S(=O)(=O)O)cc2Cl)C(=O)C1
 : 8%	14%[46.1 µM]	-10%	4%[46.1 µM]	·	·	·	·
50: O=C(C1=C[C@@H](C2CCCCC2)C[C@@H](OCc2ccc(CO)cc2)O1)N1CCOCC1
 : 0%	·	-3%	·	-2%	-1%	·	·
51: Cc1cccc(-n2nc3c(c2NC(=O)c2ccco2)CSC3)c1C
 : -13%	-9%	-3%	7%	?	-2%	-9%	-5.8%
52: CCOC(=O)N1CCN(S(=O)(=O)CCNC(=O)c2ccc(F)cc2)CC1
 : -17%	?	-9%	-13%	·	2%	·	·
53: CCOc1cc(NC(=S)NCC2CCCO2)c(OCC)cc1NC(=O)c1ccccc1 (stereo not given)
 : 3%	-17%	1%[3.69 µM]	-1%	10%	-1%	-4%	-6.4%
54: Nc1c(C(=O)c2ccccc2)sc2nsc(SCCN3CCOCC3)c12
 : -10%	0%[14.2 µM]	-7%	-20%	-30%	-1%	·	·
55: CCn1cc(C(=O)Nc2ccc3c(c2)OCCO3)c2cc(OC)c(OC)cc2c1=O
 : -19%	·	7%	·	3%	2%	?	-0.6%
56: CC1Cc2ccccc2N1C(=S)Nc1cccc(S(=O)(=O)N(C)C)c1 (stereo not given)
 : -20%	?	-19%	?	-2%	-1%	·	·
57: O=C1CSc2ccc(S(=O)(=O)NCc3ccccc3)cc2N1
 : 58%[activator]	·	-1%	·	7%	?	·	·
58: COc1cccc(C2Nc3ccccc3NC3=C2C(=O)CC(C)(C)C3)c1OC (stereo not given)
 : 3%	-3%	-1%	26%	7%	-6%	·	·
59: CCOP(=O)(OCC)C(NC(=O)c1cccs1)c1ccccc1 (stereo not given)
 : -11%	-1%[46.1 µM]	7%	4%[46.1 µM]	1%	2%	·	·

Profiles from above. Screens in order: 2A StopGo	Marburg entry inh	RE007 growth inh	Lassa entry inh	NS1 function inh	SARS PLP yeast	Cruzain noTriton	Cruzain Triton
Cc1ccc(C)c(NC(=O)C2CC3CCC2C3)c1 (stereo not given) in the list: 44%[activator]	·	25%	·	8%	1%	·	·
CC1=NN(c2cc(Cl)c(S(=O)(=O)O)cc2Cl)C(=O)C1 in the list: 8%	14%[46.1 µM]	-10%	4%[46.1 µM]	·	·	·	·
